Compound activity: PubChem BioAssay, National Center for Advancing Translational Sciences (NCATS)
Bst PK mod = pyruvate kinase (B. stearothermophilus) modulation. partly purified Bacillus stearothermophilus pyruvate kinase, luminescence ATP production; ribose 5-phosphate activator present at AC10. hit rate 1.2% among 51,000. AID 361. Potency, µM; in the data active means potency below about 11 µM; inconclusive means mostly about 12 µM to 25 µM; inactive means weaker than that;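 the screen sought inhibitors and activators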;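 further: potency means the concentration at half of the fitted maximal effect; scaled between full activation by ribose 5 phosphate and full inhibition by luteolin; about four in five hits inhibit and the cells do not say which; series up to 57 µM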
TsaE inh = displaces an ADP probe from E. coli YjeE (TsaE) | P0AF67 | purified YjeE, fluorescence polarisation of a bound ADP probe | Potency, µM | hit rate 0.05% among 71,000; active = well fitted falling curve; inconclusive = weaker or top-dose-only fall, or a rising curve; inactive = flat or poorly fitted curve;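 further: top concentration of the series not given in the record; excess ADP was the control for the full effect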
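Fluorescence polarization of a BODIPY Texas Red–ADP probe (2 uM) bound to purified YjeE (10 uM) was read after 15 min room-temperature incubation with compounds. Loss of polarization marks inhibitors; ADP serves as titrated control.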
Numbers without * were called inactive; i = inactive; ? = inconclusive; . = not tested or not shown.

Second line of a record – Bst PK mod	TsaE inh
- COc1ccc(CCNC(=O)CSc2nnc(Cn3c(=O)sc4ccccc43)n2C)cc1OC
  >57	i
- CCOC(=O)c1ccc(CSc2n[nH]c(C)n2)o1
  .	i
- O=C(Nc1ccc(-c2nc3ccccc3o2)cc1)C1CCCO1 (configuration not stated)
  6.3*	i
- c1ccc(-c2csc(Nc3nc(N4CCOCC4)nc(N4CCOCC4)n3)n2)cc1
  .	i
- O=C(O)C1C2C=CC(O2)C1C(=O)NCCC1=CCCCC1 (configuration not stated)
  >57	i
- CCCCOC(=O)C1[C@H]2C(=O)N(CCc3ccccc3)C[C@]23C=C[C@H]1O3 (some centres not stated)
  >57	i
- CCCS(=O)(=O)N1CCN(c2ccccn2)CC1
  >57	i
- O=C(c1ccco1)N1CCN(C(=O)c2cc(-c3ccccn3)nc3ccccc23)CC1
  >57	i
- Cc1cc(=O)[nH]c(SCc2nc3ccccc3n2Cc2ccccc2)n1
  >57	i
- CN(C)CCCn1cc(C2=C(c3c[nH]c4ccccc34)C(=O)NC2=O)c2ccccc21
  .	i
- CCn1c(=O)c(C(=O)NCc2cccnc2)c(O)c2ccccc21
  >57	i
- CCC(=O)Nc1ccc(NC(=O)c2c(C)nc3ccccn23)cc1
  >57	i
- O=C(CCC1COc2ccccc2O1)Nc1ccc(Cl)cn1 (configuration not stated)
  >57	i
- Cc1ccc(S(=O)(=O)N2CCN(c3nc(C)nc4sc(C)c(C)c34)CC2)cc1
  >57	i
- CC1CN(C2CC(C)(C)NC(C)(C)C2)CCC1=O (configuration not stated)
  .	i
- Cc1csc(NC(=O)CSc2nsc(SCC(=O)Nc3nc(C)cs3)c2C#N)n1
  >26	.
- COc1ccc(N2C(=O)CCC(C(=O)O)C2c2ccc(F)cc2)cc1 (configuration not stated)
  >57	i
- CC(=O)N1CCc2cc(S(=O)(=O)NC(CC(C)C)C(=O)N3CCc4ccccc4C3)ccc21 (configuration not stated)
  >57	i
- CCOc1cc(-c2nc(-c3ccc(OC)cc3)no2)cc(OCC)c1OCC
  .	i
- O=C(C1CCC(CNc2c(N3CCOCC3)c(=O)c2=O)CC1)N1CCN(c2ccccc2)CC1 (configuration not stated)
  .	i

The last 6 compounds of the part above come first, to join the parts:
Second line of a record – Bst PK mod	TsaE inh
- CC1CN(C2CC(C)(C)NC(C)(C)C2)CCC1=O (configuration not stated)
  .	i
- Cc1csc(NC(=O)CSc2nsc(SCC(=O)Nc3nc(C)cs3)c2C#N)n1
  >26	.
- COc1ccc(N2C(=O)CCC(C(=O)O)C2c2ccc(F)cc2)cc1 (configuration not stated)
  >57	i
- CC(=O)N1CCc2cc(S(=O)(=O)NC(CC(C)C)C(=O)N3CCc4ccccc4C3)ccc21 (configuration not stated)
  >57	i
- CCOc1cc(-c2nc(-c3ccc(OC)cc3)no2)cc(OCC)c1OCC
  .	i
- O=C(C1CCC(CNc2c(N3CCOCC3)c(=O)c2=O)CC1)N1CCN(c2ccccc2)CC1 (configuration not stated)
  .	i
- CCOC(=O)Cc1csc(SCn2nnc3ccccc3c2=O)n1
  >57	i
- COc1ccccc1OCCn1c(=O)sc2ccccc21
  >57	i
- COc1cc(CC(=O)NCc2ccc3c(c2)OCO3)cc(OC)c1OC
  >57	i
- CCOC(=O)c1nnn(-c2nonc2N)c1COc1ccccc1
  .	i
- CCc1cc(C=NC2CCCCC2)c(O)s1
  >57	i
- Cc1ccc(N2C(=O)CSC2c2cccnc2)cc1F (configuration not stated)
  >57	i
- O=C(Nc1nc(-c2ccccn2)cs1)c1ccc(S(=O)(=O)N2CCCCC2)cc1
  >57	i
- O=C(NCCN1CCOCC1)c1csc2c1CCCCC2
  >57	i
- COc1ccc(CCNC(=O)CCS(=O)(=O)c2ccc3c(c2)CCN3C(C)=O)cc1OC
  >57	i
- COc1ccc(CCC(=O)Nc2nc3c(s2)CN(C)CC3)cc1OC
  >57	i
- CCCCN(C)Cc1c(C)[nH]c2c(Cl)cccc2c1=O
  .	i
- COC(=O)C1C(O)=C(C(C)=N)C(=O)CC1(C)C (configuration not stated)
  .	i
- CNc1oc(Cc2cccc3ccccc23)nc1C#N
  ?	i
- CN1CCN(c2nc(-c3ccccc3)nc3c2oc2ccccc23)CC1
  ?	i
- Cc1nc(C)c(NC(=O)N2CCc3ccccc32)cc1NC(=O)N1CCc2ccccc21
  >57	i
- CC(C)N1C(=O)CCC1C(=O)NC1CCCC1 (configuration not stated)
  >57	i
- N=c1c2c(n(Cc3ccc(F)cc3)c3c1CCC3)CCC2
  .	i
- O=C(/C=C\Nc1cccc(F)c1)c1ccc2c(c1)OCO2
  .	i
- CC(=O)N1CCC2(CC1)CCN(c1ccncc1)CC2
  .	i
- C[C@@H](C(=O)Nc1ccc2ccccc2c1)[C@H]1C[C@]1(C)[C@H](NC(=O)c1ccccc1)c1ccccc1
  .	i
- O=C(CN1CCCCC1)Nc1nnc(-c2ccccc2)s1
  .	i
- CC(C)C[C@H](N)CSSC[C@@H](N)CC(C)C
  .	i
- CCCc1cc(N2CCCC(C(=O)Nc3cc(Cl)ccc3OC)C2)n2ncnc2n1 (configuration not stated)
  >57	i
- Cc1ccc2occ(C(=O)c3ccco3)c(=O)c2c1
  .	i
- COc1ccccc1N1C(=O)C2C3C=CC(C3)C2(C)C1=O (configuration not stated)
  .	i
- CCOC(=O)c1oc2cccc(OCC(O)CNC(C)C)c2c1C (configuration not stated)
  >57	i
- COc1ccc2[nH]cc(CCNc3cc(-c4ccccc4CN(C)C)ncn3)c2c1
  .	i
- CCC1(C)Cc2c(sc3c2c(=O)n(C)c2nnc(SCc4ccc5c(c4)OCO5)n32)CO1 (configuration not stated)
  >26	.
- CCNc1nc(C)cc(COC)c1C#N
  .	i
- CCOC(=O)c1sc(NC(=O)CSc2nnc(Cc3ccccc3)o2)c(C#N)c1C
  >57	i
- COc1ccc(NC(=O)C2CCCN(S(=O)(=O)c3cccnc3)C2)c(OC)c1 (configuration not stated)
  .	i
- O=C(O)c1cc(-c2ccco2)[nH]n1
  >57	i
- CN1CCN(c2ncc3nc(-c4cc(F)cc(F)c4)c(=O)n(CCC#N)c3n2)CC1
  .	i
- COc1ccccc1-n1c(CNc2c(C)cccc2C)nnc1SCC(=O)N1CCOCC1
  >57	i
- CCN1C(=O)CC(N2CCC(Nc3ccc(F)cc3)CC2)C1=O (configuration not stated)
  >57	i
- OC(CN1CCN(c2cccc(C(F)(F)F)c2)CC1)c1c[nH]c2ccccc12 (configuration not stated)
  >57	i
- Cc1nc(N2CCOCC2)c2nc(-c3ccccc3)n(C(C)CN(C)C)c2n1 (configuration not stated)
  .	i
- Cc1ccc2cc(CN(Cc3ccco3)C(=O)C3CCCCC3)c(=O)[nH]c2c1C
  >57	i
- Cc1occc1C(=O)NCc1cccc(CNC(=O)c2ccoc2C)c1
  >57	i
- Nc1ncnc2nc(Sc3ccc(Cl)cc3)[nH]c12
  >57	i
- COc1ccc(OC)c(CCNC(=O)C2CCN(c3nnc(-n4cccc4)s3)CC2)c1
  .	i
- COc1ccc(C(=O)N(CCCO)Cc2cc3c(C)ccc(C)c3[nH]c2=O)cc1OC
  >57	i
- Cn1c(C(=O)OCC(=O)NCCc2ccccc2)cc2sccc21
  >57	i
- CC(C)c1cccc2nc3c(c([Si](C)(C)C)c12)Cn1c-3cccc1=O
  .	i
- N#Cc1cccc(-c2nc(NCCN3CCOCC3)c3ccccc3n2)c1
  .	i
- CCOC(=O)C(Cc1cc(C(C)=O)ccc1OCC)C(=O)OCC
  >57	i
- CCOC(=O)CSc1nc(N)c(C#N)c(-c2cccs2)c1C#N
  .	i
- O=c1c2ccccc2nc(-c2cccc(Cl)c2)n1O
  >57	i
- CN1/C(=C\C(=O)COC(=O)CN2C(=O)C3CC=CCC3C2=O)C(C)(C)c2ccccc21 (configuration not stated)
  >57	i
- CCc1ccc(NC(=O)CNS(=O)(=O)c2c(C)noc2C)cc1
  >57	i
- CC(C)(C#N)N([O-])C=C[N+](=O)C(C)(C)C#N
  .	i
- Cc1ccc(C(=O)CSc2nc(C)cc(SCc3nnc(-c4ccccc4)o3)n2)cc1
  >57	i
- Cc1sc2nc3ccc(N4CCCC4)nn3c(=O)c2c1C
  .	i
- COC(=O)c1c(NC(=O)CN2CCC(C)CC2)c2c(C)cccc2n1C
  >57	i
- N#C[C@H]1CN[C@H](N)N[C@@H]1N
  .	i
- CCn1c(CCCc2nc3c([nH]2)c(=O)n(C)c(=O)n3C)nc2c1c(=O)n(C)c(=O)n2C
  .	i
- COc1ccccc1CNC(=O)c1ccc(NS(=O)(=O)c2c(C)noc2C)cc1
  >57	i
- O=C(C1CC1c1ccccc1)N1CCOCC1 (configuration not stated)
  .	i
- CCOC(=O)CSc1nc2ccccc2n2cnnc12
  .	i
- O=C(O)CCCN1CCCCC1
  .	i

Other entries
Second line of a record – Bst PK mod	TsaE inh
- COc1cc2[nH]c(=O)n(CCCCCC(=O)NCCCN3CCCC3=O)c(=O)c2cc1OC
  >57	i
- CCN1CCc2nc(N)oc2CC1
  .	i
- CN(C)c1ccnc(-c2cccc(NS(C)(=O)=O)c2)n1
  .	i
- O=S(=O)(c1ccccc1)N1CCC2(CCN(c3ccc(-c4ccccc4)cc3)CC2)CC1
  .	i
- CCC(=O)c1ccc(N2CCN(C(=O)Cc3ccccc3)CC2)c(F)c1
  >57	i
- CCNc1ncc2nc(C)c(=O)n(Cc3cccc(OC)c3)c2n1
  .	i
- O=S(=O)(c1cccc(-c2cn3cccnc3n2)c1)N1CCOCC1
  >57	i
- Cc1cc(C(=O)NCCCN2CCCC2=O)cs1
  >57	i
- CCSc1cnc(-c2ccccc2)n1CC
  >57	i
- Cc1ccc(-n2c(SCC(=O)N3CCCC3)nc3c(c2=O)SCC3)cc1
  >57	i
- O=C(Cn1nc(-c2ccc(Cl)cc2)ccc1=O)NCC1CCCO1 (configuration not stated)
  .	i
- CCN(Cc1ccccc1)S(=O)(=O)c1ccc(C(=O)Nc2nnc(C3CC3)o2)cc1
  .	i
- O=C(Nc1ccc2c(c1)OCO2)C1CCN(Cc2cnn(-c3ccccc3)c2-n2cccc2)CC1
  >57	i
- O=C(O)c1ccc(S(=O)(=O)c2ccc3c(c2)C(=O)N(Cc2ccco2)C3=O)cc1
  >57	i
- O=C(CSc1nnnn1-c1ccc(Cl)cc1)N1CCc2ccccc2C1
  >57	i
- COc1ccc(N2C(=O)CSC23CCCCC3)cc1
  >57	i
- CC(=O)c1sc2nc(-c3cccs3)cc(C(F)(F)F)c2c1N
  >57	i
- O=C1c2ccccc2C(O)N1Cc1ccco1 (configuration not stated)
  .	i
- Cc1cc(NC(=O)CSc2n[nH]c(CC(C)C)n2)no1
  >57	i
- Cc1cccc(NC(=O)C2CCN(S(=O)(=O)c3c(C)nn(C)c3C)CC2)n1
  .	i
- CCN1CCN(S(=O)(=O)c2cc(OCC(=O)NC3CCCCC3)c(C)cc2Cl)CC1
  >57	i
- CC(C)NC[C@@H](O)COc1cccc2[nH]ccc12
  .	i
- CCc1cccc(C)c1NC(=O)CSc1nnc(-c2ccco2)n1N
  >57	i
- O=C(CSc1nccc(=O)[nH]1)Nc1ccc(F)c(Cl)c1
  >57	i
- C[C@H](O)[C@@H]1C(=O)N2C(C(=O)O)=C(SCCN=CN)C[C@@H]12
  .	i
- CC1(C)C(=O)NC2=C1C(=O)C(=O)c1ccccc12
  .	i
- COC(=O)c1ccccc1N(C)S(C)(=O)=O
  >57	i
- CS(=O)(=O)N(CC(=O)N1CCN(c2cccc(Cl)c2)CC1)c1cccc(F)c1
  >57	i
- Oc1ccccc1-c1cc(C(F)(F)F)[nH]n1
  >57	i
- CC(C)Cc1nc2oc3c(N4CCN(CCO)CC4)ncnc3c2c2c1CCCC2
  >57	i
- COc1ccc(NC(=O)CN(c2cc(C)cc(C)c2)S(=O)(=O)c2c(C)noc2C)cc1
  .	i
- CCOC(=O)c1c(C2CC2)csc1NC(C)=O
  >57	i
- O=C1CC(c2ccsc2)c2cc3c(cc2N1)OCCO3 (configuration not stated)
  .	i
- COc1ccccc1C1C2=C(N=C3SCC(=O)N31)c1ccccc1CC2 (configuration not stated)
  >57	i
- CN=CC1=C(O)CC(C)(C)CC1=O
  >57	i
- CC1(C)Cc2c(sc3nc4n(c(=O)c23)CCC4)CO1
  >26	.
- CCc1cc2cc(C)ccc2nc1SCC(=O)N1CCN(C(=O)c2ccco2)CC1
  .	i
- COCCNc1ncnc2ccc(-c3cccnc3)cc12
  .	i
- CCC1CCCCN1C(=O)Cn1c(=O)n(CCC(=O)NCc2ccco2)c(=O)c2sccc21 (configuration not stated)
  >57	i
- CCN(CC)CCCNC(=O)c1nn(-c2ccc(OC)cc2OC)c(=O)c2ccccc12
  >57	i
- CC(C)(C)n1ncc2c(=O)n(CC(=O)NCCc3ccccc3)cnc21
  >57	i
- Cc1cnc(C(=O)OCC(=O)Nc2cc(Cl)cc(Cl)c2)cn1
  >57	i
- Cc1ccc2cc(C#N)c(SCC(=O)NCC3CCCO3)nc2c1 (configuration not stated)
  >57	i
- O=C(c1cc2c(ccc3ccccc32)oc1=O)N1CCN(CCO)CC1
  .	i
- CCCCOC(=O)CNc1nnc(SCC(=O)OCC)[nH]c1=O
  >57	i
- CCn1c(CN2CCCCCC2=O)nnc1SCc1cnc(-c2ccccc2)s1
  >57	i
- Cc1[nH]nc2c1C1(CCC3(CC1)OCCO3)C(C#N)=C(N)O2
  >57	i
- COc1ccccc1OCC(=O)OCC(=O)Nc1ncc(Cl)cc1Cl
  ?	i
- COCCSc1ccccc1C(=O)N1CCN(Cc2ccc3c(c2)OCO3)CC1
  >57	i

These rows are one share of the data, so the mix of outcomes need not match the whole.
